# PP5 inh = inhibitors of human protein phosphatase 5 (PP5) | P53041 | inhibition, % at 6.7 µM | 0.18% of 320,000 active | purified PP5c, OMFP substrate fluorescence | AID 1987;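 active = inhibition above the campaign's mean inhibition across all tested compounds plus 3 SD, cut at about 9.5% in these data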;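 also: 0% = DMSO only and 100% = 100 µM cantharidin control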
# Efflux pump inh = inhibitors of Candida antifungal efflux pumps expressed in yeast; AID 485275; S. cerevisiae Candida pump triplex, Nile Red efflux; inhibition, % at 10 µM; 0.44% of 330,000 active;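 active = plate passing quality check with inhibition over a set limit, or well fluorescence over plate mean plus 4 SD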;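 also: Nile Red retained in pooled yeast measured as flow cytometry median fluorescence; 0% = buffer negative control and 100% = Enniatin B positive control; higher means more Nile Red kept so more efflux inhibition; some compounds called inactive have numbers as strong as hits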
# JMJD2C inh = blocks human GASC-1 demethylase activity | AID 2099 | 0.069% of 330,000 active | Q9H3R0 | GST-JMJD2C(1-420) H3K9me3 demethylation, DELFIA europium | inhibition, % at 2.35 µM;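 active = more than half of a compound's replicate wells show inhibition beyond 50%, single wells judged on their own value; inconclusive = some, but no more than half, of replicates pass 50% inhibition; inactive = no replicate passes 50% inhibition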;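 also: signal counts dimethyl H3K9 product captured on neutravidin plate; 0% = median of DMSO wells and 100% = 0.3 times that DMSO median; strong numbers were not always called active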
# Target sequence (Q9H3R0 1-420 limits assumed): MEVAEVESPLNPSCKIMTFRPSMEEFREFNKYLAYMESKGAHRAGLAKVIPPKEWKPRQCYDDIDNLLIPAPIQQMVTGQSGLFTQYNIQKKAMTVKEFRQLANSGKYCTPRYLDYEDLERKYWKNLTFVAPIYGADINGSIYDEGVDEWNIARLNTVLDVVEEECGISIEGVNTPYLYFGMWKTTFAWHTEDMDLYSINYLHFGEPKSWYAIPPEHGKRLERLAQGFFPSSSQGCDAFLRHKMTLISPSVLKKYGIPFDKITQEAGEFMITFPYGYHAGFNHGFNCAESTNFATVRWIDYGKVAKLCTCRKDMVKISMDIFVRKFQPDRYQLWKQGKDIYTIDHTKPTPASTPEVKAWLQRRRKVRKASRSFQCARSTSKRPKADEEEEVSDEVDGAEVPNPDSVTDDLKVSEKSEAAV
# HCV core dimer = HCV core protein dimerization inhibition. TR-FRET GST/Flag-core106 dimerization, 1536-well. inhibition, % at 5 µM. 0.33% of 300,000 active;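 active = inhibition above the mean of all tested compounds plus 3 SD, set per screening campaign, cut at about 45% in these data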
#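 Assay system: tagged HCV core106 pair (GST and Flag); medium: KF-containing HEPES buffer, pH 7.45, DTT, CHAPS, BSA; also added: Eu donor and XL665 acceptor anti-tag antibodies; dosing: 5 µM single dose; timing: compound-protein-antibody incubation 4 h at 22.5 °C; signal: TR-FRET 671 and 617 nm emission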
# Fh CTSL1 inh = cathepsin L1 inhibition, PFM18AAP counter-screen | recombinant F. hepatica cathepsin L1, Z-Leu-Arg-MCA fluorescence | inhibition, % at 5.96 µM | 0.49% of 300,000 active | AID 1906;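 active = inhibition above the mean of all tested compounds plus 3 SD, set per screening campaign, cut at about 17% in these data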;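 also: 0% = plate median of test compound wells and 100% = 1 µM Z-Phe-Ala-diazomethylketone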
# TPT1 inh = C. albicans TPT1 enzyme inhibition; AID 1962; inhibition, % at 5 µM; 0.81% of 300,000 active; recombinant caTPT1, FP RNA substrate dephosphorylation;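 active = inhibition above the mean of all tested compounds plus 3 SD, set per screening campaign, cut at about 24% in these data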;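 also: plate controls were DMSO alone for no effect and ferristatin control at 100 nM for full effect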
# PP1 counter = blocks human PP1-alpha phosphatase, a PP5 counter-screen; 0.9% of 320,000 active; P62136; inhibition, % at 6.7 µM; AID 2235; purified PP1alpha, OMFP fluorescence;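 active = inhibition above the mean inhibition of all tested compounds plus 3 SD, computed separately for each screening campaign, cut at about 15% in these data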
# Target sequence (P62136 whole entry, looked up): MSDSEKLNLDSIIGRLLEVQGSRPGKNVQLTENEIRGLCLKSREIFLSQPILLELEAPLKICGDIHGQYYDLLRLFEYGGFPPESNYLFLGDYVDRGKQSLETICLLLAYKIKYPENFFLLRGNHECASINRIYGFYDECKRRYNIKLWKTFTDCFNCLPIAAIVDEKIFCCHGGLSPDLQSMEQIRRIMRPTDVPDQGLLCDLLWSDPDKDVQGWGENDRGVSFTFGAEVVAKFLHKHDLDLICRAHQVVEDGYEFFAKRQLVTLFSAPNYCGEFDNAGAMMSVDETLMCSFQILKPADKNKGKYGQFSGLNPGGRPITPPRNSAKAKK
# LYPLA2 inh = blocks human lysophospholipase 2, a PME1 counter-screen | inhibition, % at 5.9 µM | 0.38% of 320,000 active | recombinant LYPLA2, FP-Rh probe fluorescence polarization | O95372 | AID 2177;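 active = inhibition above the screen-wide mean plus 3 SD, limit set per campaign, cut at about 26% in these data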;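 also: 0% = LYPLA2 with DMSO and 100% = wells lacking LYPLA2 enzyme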
# Target sequence (O95372 whole entry, looked up): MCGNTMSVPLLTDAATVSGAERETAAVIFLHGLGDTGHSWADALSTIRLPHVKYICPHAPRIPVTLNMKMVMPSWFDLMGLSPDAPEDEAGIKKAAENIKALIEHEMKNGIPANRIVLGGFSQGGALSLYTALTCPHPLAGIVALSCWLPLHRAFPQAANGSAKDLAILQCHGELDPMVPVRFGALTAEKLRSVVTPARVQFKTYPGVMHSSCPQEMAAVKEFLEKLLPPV
# Numbers without * were called inactive; ? = inconclusive; · = no result given.
SMILES,PP5 inh,Efflux pump inh,JMJD2C inh,HCV core dimer,Fh CTSL1 inh,TPT1 inh,PP1 counter,LYPLA2 inh
O=C(c1ccc(Cl)c(Cl)c1)c1cc(-c2ccccn2)c(N2CCOCC2)s1,0.9,-0.1,0,-24,4,10,2,-2
Cc1ccc(OC(=O)CCN2C(=O)c3ccccc3C2=O)cc1C,0.3,0.2,-16,8,-32,8,-4,-5
CCCCOc1ccc(C(O)C(CN2CCCCC2)c2ccccc2)cc1 (stereo unspecified),3.7,0.0,46,0,11,-1,-2,-7
CCC(=O)Nc1ccc(C(=O)n2ccc(C)n2)cc1,0.7,0.0,-6,0,-6,6,-2,1
CC(C)=CCCC(C)CN1CCC(O)CC1 (stereo unspecified),3.5,-0.1,-2,1,0,0,4,5
c1cncc(C(c2nnnn2C2CCCC2)N2CCCC2)c1 (stereo unspecified),0.1,0.0,6,-3,-1,-2,-4,2
CC1CCCN(c2nc3ccccc3nc2C(C#N)S(=O)(=O)c2ccccc2)C1 (stereo unspecified),-0.4,0.0,8,24,0,-25,4,5
COC(=O)c1[nH]c2cc(C)ccc2c1NC(=O)CN1CCCc2ccccc21,5.5,0.3,9,-1,1,1,1,-6
O=C(CSc1nc(C2CC2)n(-c2ccccc2)n1)NCc1ccco1,0.1,0.0,2,·,·,·,1,-3
Cc1ccc(SCC(=O)OCC(=O)N(CCC#N)c2ccccc2)cc1C,-1.1,0.1,1,8,-20,1,-5,1
CCC(=O)N(CCC(c1ccccc1)c1ccco1)Cc1cccs1 (stereo unspecified),-0.7,0.1,64,1,38*,-2,-4,3
CCCCc1[nH]c(=O)c(C#N)c2c1CCCC2,0.8,-0.1,1,2,1,0,9,4
Cc1sc2nc(CN3CCOCC3)nc(NCCc3ccccc3)c2c1C,1.7,0.1,-3,2,10,2,3,2
Cn1c(=O)n(C)c2cc(/C=N/NC(=S)NCc3ccccc3)ccc21,1.2,-1.5,-6,0,6,0,0,3
Cc1cc(OCC(=O)NC2CC(C)(C)NC(C)(C)C2)c(C)cc1Br,0.7,0.1,-1,-8,2,-1,-6,-5
Cc1cnc(NC(=O)CSc2nnc(-c3cccs3)n2C)s1,1.8,0.1,-1,-8,-10,2,-14,0
CCN(CC(=O)Nc1cc(Cl)ccc1C)C(=O)CCS(=O)(=O)c1ccc(Cl)cc1,0.3,0.2,-7,11,1,-1,3,13
CC(C)=CCCC(C)CN1CCC(N2CCC(C(=O)N3CCCC3)CC2)CC1 (stereo unspecified),5.8,0.0,7,1,-1,-1,0,13
COc1ccc(F)cc1CN1CCN(c2ncnc3scc(-c4ccccc4)c23)CC1,2.0,0.3,7,4,0,1,-4,2
CC(C)CC(C(=O)N1CCOCC1)N1Cc2ccccc2C1=O (stereo unspecified),-0.2,-0.1,-4,1,7,-5,-1,-4
Cn1c(=O)c2c(nc(N3CCN(Cc4ccccc4)CC3)n2CCCc2ccccc2)n(C)c1=O,2.0,0.2,8,13,2,-2,-3,5
CC(OC(=O)c1cccc(N(C)C)c1)C(=O)N1CCc2ccccc2C1 (stereo unspecified),·,0.0,5,·,·,·,·,·
Cc1ccc(C2=NNC(C(O)C(O)C(O)CO)S2)cc1 (stereo unspecified),-3.3,-0.1,3,1,-5,0,-7,2
CN1CCN(c2nc3c(c(=O)n(C)c(=O)n3C)n2Cc2cccc3ccccc23)CC1,2.1,-0.1,2,-3,-4,-1,-4,0
COc1ccccc1/C=N/NC(=O)CN(C1=NS(=O)(=O)c2ccccc21)c1ccccc1,3.4,0.1,2,17,-1,-5,6,0
COc1ccc(N/C(C)=C/C(=O)c2ccccc2)cc1,1.1,0.1,1,4,4,0,-1,5
COc1cc(/C=N/NC(N)=O)ccc1OC(=O)c1cccs1,1.5,0.1,-18,2,2,-3,-4,3
Cc1oc(-c2ccc(Cl)cc2)nc1CS(=O)CC(=O)NCCCN1CC(C)CC(C)C1 (stereo unspecified),0.7,-0.2,-18,1,-1,-2,-2,1
Cc1ccc(-n2nc3c(N4CCC(C(=O)NCCc5ccco5)CC4)nnc(C)c3c2C)cc1,-1.7,0.1,-5,18,3,18,2,-1
CCOCCn1c(=O)c2c(nc3n2CC(C)CN3CCc2ccccc2)n(C)c1=O (stereo unspecified),2.0,0.1,-20,0,3,1,-3,6
Cc1ccc(SCC(=O)Nc2ccc(S(N)(=O)=O)cc2)cc1,2.2,-0.2,5,1,4,-2,3,0
Cc1ccc(-c2cnn(-c3cccc([N+](=O)[O-])c3)c2N)cc1,1.9,-0.1,0,-6,4,1,-4,9
Nc1ccc(C(=O)Oc2ccc([N+](=O)[O-])cc2)cc1,2.5,-0.1,23,-9,4,-3,-2,5
CN(C)CCC(Oc1ccccc1OCc1ccccc1)c1ccccc1 (stereo unspecified),-2.6,0.1,0,-1,0,2,-3,5
Fc1cccc(Cc2noc(CN3CCOCC3)n2)c1,0.0,0.1,6,0,0,1,-4,3
Cc1cccc(-c2n[nH]c(=S)n2/N=C/C=C/c2ccco2)c1,-0.2,0.1,-2,13,5,-1,-3,-2

# Results in JMJD2C inh, for some of the entries so far:
SMILES	JMJD2C inh
CN(C)CCC(Oc1ccccc1OCc1ccccc1)c1ccccc1 (stereo unspecified)	0
Cc1cccc(-c2n[nH]c(=S)n2/N=C/C=C/c2ccco2)c1	-2

# (cont.)
SMILES,PP5 inh,Efflux pump inh,JMJD2C inh,HCV core dimer,Fh CTSL1 inh,TPT1 inh,PP1 counter,LYPLA2 inh
CC(C)(C)n1nc2c(c1NC(=O)COc1ccc3ccccc3c1)CS(=O)(=O)C2,0.8,0.0,-40,-2,0,-2,-5,9
COc1ccc(C2CC(c3ccc(F)cc3)Nc3nc(N)nn32)cc1OC (stereo unspecified),-0.1,0.1,-6,-5,1,-2,0,2
CC1(OC(=O)c2ccco2)C(=O)C=C2C=C(C3CC3)OC=C2C1=O (stereo unspecified),1.8,0.0,6,6,1,-12,1,23
C/C=C(\C)C(=O)NCCN1C2=NC[C@H](Cc3ccc(O)cc3)N2C[C@@H]1Cc1ccc(OC)cc1,-1.1,·,-1,-6,-2,-5,-3,-2
O=C(CN1CCN(S(=O)(=O)c2ccccc2C(F)(F)F)CC1)NCc1cccs1,-0.4,0.0,3,-4,6,1,0,-2
COc1ccc(C(=O)O/N=C/c2ccc(S(=O)c3ccc(Cl)cc3)nc2)cc1 (stereo unspecified),0.6,0.0,10,4,2,-6,0,5
CN(C)CCCN(CCCNC(=O)/C=N/O)Cc1ccccc1,-2.1,0.1,0,5,-1,-2,-2,1
OC1CCN(C(c2ccc3ncccc3c2)c2nnnn2C2CCCCC2)CC1 (stereo unspecified),-0.2,0.0,11,1,-1,-1,-6,-4
COc1ccc(C(=O)N/N=C/C(C)c2ccccc2)cc1OC (stereo unspecified),-1.6,0.0,?,-1,-4,-2,-1,3
Cc1ccccc1OCC(=O)Nc1cccc(S(=O)(=O)NC2=NCCCCC2)c1,0.4,-0.1,5,-3,-5,3,-1,4
O=C(CN1CCN(S(=O)(=O)c2ccc(Cl)cc2)CC1)NCc1cccs1,0.8,0.0,-5,-2,-2,4,-5,6
OC(CNCc1ccc(-c2ccccc2)cc1)c1ccccc1 (stereo unspecified),3.4,0.2,18,2,-3,1,5,-7

# Full records, quoted from the list.
# `COc1ccc(C2CC(c3ccc(F)cc3)Nc3nc(N)nn32)cc1OC` (stereo unspecified) as listed: PP5 inh = -0.1; Efflux pump inh = 0.1; JMJD2C inh = -6; HCV core dimer = -5; Fh CTSL1 inh = 1; TPT1 inh = -2; PP1 counter = 0; LYPLA2 inh = 2
# `OC(CNCc1ccc(-c2ccccc2)cc1)c1ccccc1` (stereo unspecified) as listed: PP5 inh = 3.4; Efflux pump inh = 0.2; JMJD2C inh = 18; HCV core dimer = 2; Fh CTSL1 inh = -3; TPT1 inh = 1; PP1 counter = 5; LYPLA2 inh = -7

# More structures
SMILES,PP5 inh,Efflux pump inh,JMJD2C inh,HCV core dimer,Fh CTSL1 inh,TPT1 inh,PP1 counter,LYPLA2 inh
O=C(O/N=C1\CCS(=O)(=O)c2sccc21)c1c(F)cccc1F,-0.8,-0.1,-3,5,-2,-1,-3,4
COc1cc(/C=N/Nc2cccc(C)c2)ccc1OC(=O)c1ccco1,0.6,-0.1,3,28,3,-4,-1,-3
O=C(Nc1ccccc1Cl)c1ccccc1S(=O)(=O)c1ccccc1[N+](=O)[O-],-1.9,-0.1,3,11,0,2,2,3
CC(=O)Nc1ccc(S(=O)(=O)Nc2nc3ccccc3nc2Nc2ccc3ccccc3c2)cc1,3.7,-0.1,13,7,5,29*,1,1
Cc1nc(SCC(=O)N2CCN(c3ccccn3)CC2)c(C#N)c(C)c1C,·,-0.2,-3,·,·,·,·,·
c1cc(C(c2nnnn2C2CCCC2)N2CCOCC2)ccn1 (stereo unspecified),1.8,0.2,30,7,-1,5,-3,3
Cc1ccn2c(=O)nc(SCC(=O)NCc3ccc(F)cc3)nc2c1,3.2,0.1,-7,10,6,5,-2,4
CCCN(Cc1nnc(-c2ccccc2Cl)o1)C(=O)c1cc([N+](=O)[O-])cc([N+](=O)[O-])c1,-0.4,0.2,-4,1,-2,-2,-3,1
CC(=O)c1cccc(S(=O)(=O)NC2CCSc3ccccc32)c1 (stereo unspecified),-2.5,-0.1,0,6,0,2,-1,10
COc1ccc(C(=O)Oc2coc(CSc3nnc(NC(=O)c4cccs4)s3)cc2=O)cc1,-0.1,0.1,-9,43,6,1,-2,8
COc1cccc(-n2c(SCC(=O)NC(C)(C)C)nnc2-c2ccoc2C)c1,1.4,-0.1,-5,-5,1,-3,-1,9
O=C(c1ccccc1C(=O)N1CCN(c2ccc(F)cc2)CC1)N1CCN(c2ccc(F)cc2)CC1,-2.0,0.0,0,8,-1,-3,1,-3
Cc1nc(SCC2(C)CC2(Cl)Cl)n[nH]1 (stereo unspecified),0.1,-0.1,0,-4,4,-5,-2,-1
Cc1ccc(C2CC(c3ccccc3Cl)n3nc(N)nc3N2)cc1 (stereo unspecified),0.6,0.3,-2,2,6,-2,0,1
CCOC(=O)c1[nH]c2ccc(OC)cc2c1NC(=O)CN1CCSCC1,-1.3,0.0,13,-2,1,1,-3,3
CC1(C)Cc2ccccc2C(/C(C#N)=N/O)=N1,-0.6,0.0,3,2,2,1,-2,-17
O=C(O)c1ccc(NS(=O)(=O)c2cccc3cccnc23)cc1,-1.0,0.0,-22,-1,2,-1,-4,0
CCCc1nc2sc3c(SCC(=O)NCc4ccco4)ncnc3c2c2c1CCC2,2.4,0.5,7,40,0,5,10,-6
COC(=O)c1ccc(NC(=O)CSc2nnc(COc3ccccc3)n2C)cc1,-0.2,0.0,3,5,1,4,-1,-1
O=C(c1ccco1)N(CCC(c1ccccc1)c1ccco1)Cc1ccccc1 (stereo unspecified),5.4,0.2,-24,41,31*,7,-4,2
COc1ccc(Cl)cc1NS(=O)(=O)c1cc(Cl)ccc1OC,1.0,-0.2,24,2,9,-5,-11,1
Cc1nc(C)c(-c2csc(NCCc3ccccc3)n2)s1,4.2,0.1,11,0,1,-1,6,1
O=C1CC[C@@H](CN(Cc2ccccc2)Cc2cn[nH]c2-c2cc3ccccc3o2)N1,5.9,0.1,-28,7,-1,0,1,-4
CCN(CC)S(=O)(=O)c1cccc(C(=O)N[C@H](C(=O)OCC(=O)Nc2ccccc2)C(C)C)c1,-1.2,-0.1,0,8,-32,0,2,-2

# A portion of the library, so the mix of outcomes need not match the whole.
